# D2 PAM: positive allosteric modulators of human D2 dopamine receptor; P14416; DiscoveRx D2 beta-arrestin cells, luminescence, 90 min; 100% = 57 uM dopamine signal; potentiation, % (test concentration not listed); 0.23% of 360,000 active; active = potentiation of 50% or more; inconclusive = 30% to 50%; inactive = 30% or less;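 also: compound concentration not given in the record; tested on top of an EC20 dose of dopamine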
#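 PathHunter beta-arrestin assay in DiscoveRx D2 cells. Compounds were added with an EC20 of dopamine (50 nM final) for 90 min at 37 deg C. Luminescence was read 1 h after detection reagent, with 57 uM dopamine as the EC100 control.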
# gsp agonist: activates gsp, the McCune-Albright syndrome mutation; Potency, µM (titrated, usually from 76.9 µM), without a hit: top-dose activation (cAMP increase), most hits filed as activators; 0.13% of 340,000 active; gsp mutant cells, cAMP HTRF, 30 min; control for the full effect not named in the record; AID 624287; active = well fitted activation curve with a large enough effect; inconclusive = small, poorly fitted or top-dose-only effect, or another doubt; inactive = no such curve, though single readings can be large or run the other way; cell line not stated here;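 also: phosphodiesterase inhibitor Ro 20-1724 added with compounds to block cAMP breakdown; potency is read from the fitted curve at half-maximal effect; nearly all actives have a fitted effect of over 60% in size; about a fifth of the inactives were tested at one dose only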
#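 Cells stably selected in G418 were plated at 2000/well, grown 16-24 hr, then given compounds in DMSO with the PDE inhibitor […] (300 uM solution added) for 30 min at 37C; cAMP was read by HTRF.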
# D2 agonist: activates the human D2 dopamine receptor | P14416 | 0.084% of 360,000 active | AID 624465 | activation, % (concentration not given with the values) | DiscoveRx PathHunter D2 beta-arrestin, luminescence, 90 min; 100% = 57 uM dopamine signal; in the data active = activation above about 40%; inconclusive = about 15% to 40%; inactive = below about 15%; also: compound concentration not given in the record; the text of the record calls up to 30% inactive
#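 DiscoveRx PathHunter D2 beta-arrestin cells (2,100/well) attached overnight, then compound-stimulated 90 min at 37 C in HBSS/10 mM HEPES/0.1% Tween-20 buffer; beta-galactosidase complementation read by luminescence after 1 h at ambient temperature. Dopamine 57 uM final (EC100) as control.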
# CtBP-E1A blk: blocks the CtBP interaction with E1A; AlphaScreen GST-E1A/His-CtBP binding, 1536-well; stronger effect = lower value; control for the full effect not named in the record; activity change, % (concentration not given with the values); 0.49% of 340,000 active; in the data active means activity change below about -65%; inconclusive means about -30% to -65%; inactive means above about -30%; also: % is scaled to controls: 0 for no effect and ±100 for the full control effect
#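 AlphaScreen with 125 nM GST-E1A and 125 nM His-CtBP (5X stocks) in Tris pH 8.0, 300 mM NaCl, BSA, Tween 20, TCEP. Compounds preincubated 2 h at 37 deg C, then glutathione donor/nickel acceptor beads added for 1 h at 37 deg C in dark.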
# Six1-Eya2 blk: inhibitors of human Six1/Eya2 interaction; Q15475+O00167; AlphaScreen GST-Six1/His-Eya2 binding, biochemical; stronger effect = lower value; control for the full effect not named in the record; activity change, % (concentration not given with the values); 0.56% of 360,000 active; AID 651725; in the data active = activity change below about -65%; inconclusive = about -30% to -65%; inactive = above about -30%; also: % is scaled to controls: 0 for no effect and ±100 for the full control effect
# Target sequence (O00167 whole entry, looked up): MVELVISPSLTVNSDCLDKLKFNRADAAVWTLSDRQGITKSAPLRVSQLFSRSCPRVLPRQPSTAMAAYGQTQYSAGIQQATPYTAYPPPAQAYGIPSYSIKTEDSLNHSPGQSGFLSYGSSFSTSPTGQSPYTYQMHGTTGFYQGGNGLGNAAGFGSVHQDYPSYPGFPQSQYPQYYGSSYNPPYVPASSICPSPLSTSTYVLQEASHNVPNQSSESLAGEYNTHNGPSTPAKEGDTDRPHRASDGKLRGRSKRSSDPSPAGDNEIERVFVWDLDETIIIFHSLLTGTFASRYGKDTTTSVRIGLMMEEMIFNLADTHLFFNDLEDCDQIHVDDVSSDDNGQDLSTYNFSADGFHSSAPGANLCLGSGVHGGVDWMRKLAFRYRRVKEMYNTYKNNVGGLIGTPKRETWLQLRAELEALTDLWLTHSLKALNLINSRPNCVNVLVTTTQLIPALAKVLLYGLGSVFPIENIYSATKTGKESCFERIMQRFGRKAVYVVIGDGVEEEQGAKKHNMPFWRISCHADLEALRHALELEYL
# Target sequence (Q15475 whole entry, looked up): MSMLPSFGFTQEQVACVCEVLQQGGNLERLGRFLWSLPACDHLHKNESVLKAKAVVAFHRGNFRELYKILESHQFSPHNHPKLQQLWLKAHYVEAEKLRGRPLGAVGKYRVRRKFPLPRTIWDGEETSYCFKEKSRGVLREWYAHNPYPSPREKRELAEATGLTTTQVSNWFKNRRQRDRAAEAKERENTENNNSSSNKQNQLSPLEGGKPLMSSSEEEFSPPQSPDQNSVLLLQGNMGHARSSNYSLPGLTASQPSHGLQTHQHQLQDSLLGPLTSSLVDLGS
#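 AlphaScreen with GST-Six1 and His-Eya2 (5X mix: 250 nM and 500 nM), glutathione donor and nickel acceptor beads; buffer 50 mM Tris pH 8.0, 300 mM NaCl, 1 mM TCEP; 1 h at 37 C in the dark.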
# gsp antagonist: antagonists of gsp mutant (McCune-Albright syndrome). gsp-mutant cells, cAMP HTRF, 30 min; control for the full effect not named in the record. Potency, µM (series often up to 76.9 µM), without a hit: at the top dose activity change, negative = inhibition, hits mostly inhibitors. 0.4% of 340,000 active. AID 624288; active = falling curve of any shape with a large fitted effect; inconclusive = falling curve, mostly with a smaller effect; inactive = flat or rising curve; cell line not stated here;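 also: intracellular cAMP measured with PDE inhibitor Ro 20-1724 present during compound exposure; potency is read from the fitted curve at half-maximal effect; % is scaled to controls: 0 for no effect and ±100 for the full control effect; nearly all actives have a fitted effect of over 65% in size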
#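 Cells in G418 medium, seeded 16-24 h, 37C; buffer exchange to DPBS + 1 mM CaCl2, 0.5 mM MgCl2, 0.05% BSA; cpds in DMSO + […] (300 uM stock), 30 min 37C; HTRF cAMP detection.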
# Active calls of the source: *; ? = inconclusive; / = no result given; [ ] = remark or other dose.
SMILES,D2 PAM,gsp agonist,D2 agonist,CtBP-E1A blk,Six1-Eya2 blk,gsp antagonist
COc1cccc2c1OCC(C(=O)O)C2 (stereo not drawn),-0.3,11.2%[15.4 µM],-3.4,2.6,6.7,20.9%
Nc1c(C(=O)Nc2ccccc2F)sc2nc(-c3cccnc3)ccc12,-8.7,-0.9%[15.4 µM],5.3,-1.7,-5.0,1.4%
N#C/C(C(=O)Nc1ccc(Cl)cc1)=C(/S)Nc1ccccc1,-22.7,?,-3.0,-11.0,-2.5,-13.1%
Cc1ccc(/C=C/C(=O)O)cc1S(=O)(=O)N1CCC(Cc2ccccc2)CC1,-7.8,?,-2.8,-4.1,-2.8,9.6%
CCOC(=O)c1c(NC(=O)Cn2ccsc2=N)sc(C)c1C,-17.4,12.3%[15.4 µM],-2.6,-3.9,-4.5,-9.2%
COc1cccc(Oc2ccc(C(F)(F)F)cc2NC(=O)C2=COCCO2)c1,-21.1,-29.0%,-0.2,0.6,-1.8,-19.7%
Cc1ccc(-n2c(SCC(=O)N3CCN(c4ccccn4)CC3)nnc2N2CCCC2)cc1,-10.5,13.0%,1.7,-2.0,5.8,-13.3%
COC(=O)c1cn(NC(=O)c2ccc([N+](=O)[O-])cc2Cl)c(=O)c2ccccc12,-3.7,0.9%[15.4 µM],-2.9,-19.6,-6.3,-31.3%
CCN(c1ccccc1)S(=O)(=O)c1ccc(Cl)c(NC(=O)CN(C)C2CCN(C)CC2)c1,-10.9,?,-4.5,1.6,1.5,10.7%
Cc1ccc2nc(COC(=O)c3cccnc3Cl)cc(=O)n2c1,-3.4,?,-2.7,4.3,-6.0,/
O=C(c1cccn(Cc2ccc(Cl)c(Cl)c2)c1=O)N1CCOCC1,-2.6,18.2%,-2.2,1.3,1.9,6.3%
O=C(CCc1ccc(O)cc1)NNC(=S)NCCc1ccccc1,0.7,19.5%[15.4 µM],-1.5,-0.6,0.4,-1.0%
CC(c1c(O)c2ccccc2[nH]c1=O)C1(C)CCC(O)C(C)(C)O1 (stereo not drawn),1.1,-13.4%,-4.7,-4.5,4.6,7.1%
Cc1cccc(S(=O)(=O)NC(=O)C2(C)CCN2C(=O)Cc2ccc(-c3ccccc3)cc2)c1 (stereo not drawn),-5.1,/,-2.4,1.4,-3.7,/
O=c1cc(Br)c(O)c(Br)cc1Br,-13.2,-19.0%,-0.6,-1.9,-23.8,-14.1%
COc1ccccc1N1C(=O)C2CCC(c3ccccc3)CC2C1=O (stereo not drawn),-3.7,2.0%,-3.8,-12.9,11.6,-18.3%
COc1ccc(CNC(=O)CCC(=O)N2CCN(S(=O)(=O)c3ccc(Cl)cc3)CC2)cc1,-26.4,?,-2.0,/,0.8,-4.7%
O=C(NNC(=S)NC(=O)c1cccc([N+](=O)[O-])c1)c1ccc(Br)cc1,-15.4,3.4%[15.4 µM],-16.8,-10.9,16.3,4.4%
Cc1nc2cc(N3CCN(C)CC3)c(NC(=O)Cc3ccccc3)cc2c(=O)n1Cc1ccccc1,-3.3,5.8%[15.4 µM],-3.7,1.9,-10.1,8.7%
C[C@@]12C(=O)N(Cc3ccccc3)CC(=O)N1[C@H]1c3cc(Cl)ccc3OC[C@@H]1[C@@H]2c1ccccc1,14.8,-49.5%[inhibitor],6.4,-9.5,-9.1,-11.0%
CCn1nc(C)c(/C=N\NC(=O)c2cccc(OC)c2)c1C,-4.6,-62.3%[inhibitor],-1.9,-4.5,-6.8,10.2%
Cc1[nH]c2ccccc2c1C(=O)C(=O)N1CCN(c2ccccc2F)CC1,-6.6,12.6%,1.3,/,-2.8,-2.9%
Cc1ccc(C2=[N+]([O-])C3(CCCCC/C3=N\NC(N)=O)N(O)C2(C)C)o1 (stereo not drawn),18.4,-14.5%,6.2,1.3,3.2,-5.0%
O=C(Nc1ccccc1)c1cccnc1N1CCCC1,-9.0,-10.8%,-0.4,3.6,1.1,15.3%

# Reformatted with each value named: entries from further up
Cc1ccc(C2=[N+]([O-])C3(CCCCC/C3=N\NC(N)=O)N(O)C2(C)C)o1 (stereo not drawn)
  D2 PAM: 18.4	gsp agonist: -14.5%	D2 agonist: 6.2	CtBP-E1A blk: 1.3	Six1-Eya2 blk: 3.2	gsp antagonist: -5.0%

O=C(Nc1ccccc1)c1cccnc1N1CCCC1
  D2 PAM: -9.0	gsp agonist: -10.8%	D2 agonist: -0.4	CtBP-E1A blk: 3.6	Six1-Eya2 blk: 1.1	gsp antagonist: 15.3%

# Other structures follow.
SMILES,D2 PAM,gsp agonist,D2 agonist,CtBP-E1A blk,Six1-Eya2 blk,gsp antagonist
CCCc1[nH]nc2c1C(c1ccccc1OC)C(C#N)=C(N)O2 (stereo not drawn),-4.1,-7.1%,-0.7,-1.8,-0.8,2.5%
CCn1nnc(NC(=O)c2ccc(-c3ccccc3[N+](=O)[O-])o2)n1,-13.1,0.0%,-1.5,-2.9,-0.1,1.9%
Cc1ccc(N2C(=O)SC(Cc3ccccc3)C2=O)cc1 (stereo not drawn),-8.1,-5.8%[15.4 µM],-1.9,4.7,8.1,-9.9%
O=C(COC(=O)Cn1c(C(F)(F)F)nc2ccccc21)Nc1ccc2c(c1)OCCO2,13.5,9.1%,0.9,-8.0,2.3,-13.4%
CC(C)CC1C(=O)N(Cc2cn(CC3CCCCC3)nn2)CCS(=O)(=O)N1Cc1ccc(-c2ccncc2)cc1 (stereo not drawn),-6.3,-67.4%[inhibitor],-3.0,-0.9,5.9,/
CC(=O)N1c2ccc(S(=O)(=O)N3CCC(C(=O)Nc4cccc(C)c4)CC3)cc2CC1C (stereo not drawn),-35.5,29.6%,-1.5,-2.6,-1.3,?
COc1ccccc1CNC(=O)Cn1nc(C)c([N+](=O)[O-])c1C,-1.2,-23.4%,2.5,5.9,-0.4,1.5%
COc1cc(-c2nc(-c3ccc(Br)o3)no2)cc(OC)c1OC,-3.2,-7.5%,-6.1,-0.3,7.6,-20.7%
CCn1c(SCC(=O)NCc2ccc3c(c2)OCO3)nnc1-c1ccncc1,-10.0,6.1%,-2.6,-4.6,1.4,3.3%
Cc1cc(O)cc2c1C1CCC3(C)C(=O)CCC3C1C=C2 (stereo not drawn),-1.3,24.7%,3.3,0.6,-10.4,-1.8%
N#CCc1nc2ccccc2c(=O)[nH]1,-6.6,2.7%[15.4 µM],-4.3,-16.2,?,2.2%
Cc1cccc(NC(=O)CS(=O)(=O)Cc2ccccc2)n1,-0.3,5.1%,-4.3,-0.8,-0.4,11.3%
Cc1ccc(Nc2c([N+](=O)[O-])cc(C(=O)N3CC(=O)Nc4ccccc43)cc2[N+](=O)[O-])c(C)c1,11.9,28.5%,6.2,?,?,-14.5%

# By substructure, those above with a Cl atom
SMILES,D2 PAM,gsp agonist,D2 agonist,CtBP-E1A blk,Six1-Eya2 blk,gsp antagonist
N#C/C(C(=O)Nc1ccc(Cl)cc1)=C(/S)Nc1ccccc1,-22.7,?,-3.0,-11.0,-2.5,-13.1%
COC(=O)c1cn(NC(=O)c2ccc([N+](=O)[O-])cc2Cl)c(=O)c2ccccc12,-3.7,0.9%[15.4 µM],-2.9,-19.6,-6.3,-31.3%
CCN(c1ccccc1)S(=O)(=O)c1ccc(Cl)c(NC(=O)CN(C)C2CCN(C)CC2)c1,-10.9,?,-4.5,1.6,1.5,10.7%
Cc1ccc2nc(COC(=O)c3cccnc3Cl)cc(=O)n2c1,-3.4,?,-2.7,4.3,-6.0,/
O=C(c1cccn(Cc2ccc(Cl)c(Cl)c2)c1=O)N1CCOCC1,-2.6,18.2%,-2.2,1.3,1.9,6.3%
COc1ccc(CNC(=O)CCC(=O)N2CCN(S(=O)(=O)c3ccc(Cl)cc3)CC2)cc1,-26.4,?,-2.0,/,0.8,-4.7%
C[C@@]12C(=O)N(Cc3ccccc3)CC(=O)N1[C@H]1c3cc(Cl)ccc3OC[C@@H]1[C@@H]2c1ccccc1,14.8,-49.5%[inhibitor],6.4,-9.5,-9.1,-11.0%

# Screens (PubChem BioAssay)
